HSV replic up: enhancers of HSV replication in host cells, fold increase, host cell viability; HSV replication augmentation in cells; maximum fold increase; 220,000 compounds, 0.005% hits; AID 1956, 2009;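 active means peak rise of 1.5-fold or more in the series; inconclusive means self-fluorescent or not available for retest; tested in PC3 cells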;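 further: first round at 10 µM; read as green reporter fluorescence; hits show the peak of a series up to 25 µM; 1 = signal of infected wells without compound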
RGS16-Gao: modulators of RGS16 binding to Galphao, primary screen, biochemical, human proteins, multiplexed bead flow cytometry; Regulator of G-protein signaling 16 (Homo sapiens) + Guanine nucleotide-binding protein …; bead-based flow cytometry RGS16-Galphao binding, fluorescence; actives lie on both sides; binding response (% of control), % at 10 µM; 220,000 compounds, 0.38% hits;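 active means below 25% or above 175%, edge rows of some plates excepted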;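 further: Galphao activated by GDP with aluminum fluoride before binding; 100% = wells without compound and 0% = beads without RGS; some results beyond the cut were filed as inactive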
Target sequence (O15492 whole entry, looked up): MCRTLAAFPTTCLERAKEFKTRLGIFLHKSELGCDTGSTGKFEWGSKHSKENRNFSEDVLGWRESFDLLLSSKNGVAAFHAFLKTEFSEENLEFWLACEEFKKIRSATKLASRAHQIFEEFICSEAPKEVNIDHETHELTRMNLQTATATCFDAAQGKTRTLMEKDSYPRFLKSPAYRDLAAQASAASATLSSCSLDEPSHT
Target sequence (P09471 whole entry, looked up): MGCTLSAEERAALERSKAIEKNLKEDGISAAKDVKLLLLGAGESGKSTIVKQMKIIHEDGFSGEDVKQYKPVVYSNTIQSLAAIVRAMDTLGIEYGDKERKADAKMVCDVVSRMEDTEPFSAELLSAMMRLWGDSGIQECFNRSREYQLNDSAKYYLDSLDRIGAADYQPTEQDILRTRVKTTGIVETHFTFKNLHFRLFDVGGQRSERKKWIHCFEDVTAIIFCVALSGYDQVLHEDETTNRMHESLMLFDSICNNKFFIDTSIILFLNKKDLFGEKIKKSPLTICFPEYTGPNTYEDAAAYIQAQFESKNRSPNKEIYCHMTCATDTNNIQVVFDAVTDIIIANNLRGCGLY
GALR2 agonist: GALR2 receptor agonists, primary screen, cell-based | Galanin receptor type 2 (Homo sapiens), O43603 | GALR2-expressing cells, agonist activation read-out | activation, %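 (tested at 5 µM)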 | 140,000 compounds, 0.48% hits | AID 803, 2007;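 active means above mean plus 3 SD of all compounds, about 5% in these data, not always enough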;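 further: 0% = vehicle buffer wells and 100% = reference agonist at full effect; tested in CHO reporter cells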
Target sequence (O43603 whole entry, looked up): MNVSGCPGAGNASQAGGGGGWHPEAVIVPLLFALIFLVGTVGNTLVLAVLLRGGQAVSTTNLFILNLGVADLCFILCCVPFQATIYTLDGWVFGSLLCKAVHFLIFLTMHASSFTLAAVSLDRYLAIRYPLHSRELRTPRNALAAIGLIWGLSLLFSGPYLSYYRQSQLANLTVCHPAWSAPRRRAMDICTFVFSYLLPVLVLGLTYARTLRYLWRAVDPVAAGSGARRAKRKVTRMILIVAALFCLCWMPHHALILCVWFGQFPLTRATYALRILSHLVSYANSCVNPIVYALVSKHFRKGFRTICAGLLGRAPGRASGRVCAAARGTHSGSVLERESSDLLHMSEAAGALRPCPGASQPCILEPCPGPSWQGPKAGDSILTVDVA
PKD1 inh: inhibitors of human PKD1 kinase, biochemical, fluorescence polarization; Serine/threonine-protein kinase D1 (Homo sapiens), Q15139; PKD1 kinase fluorescence polarization assay; inhibition, %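 (about 10 µM by stock and volumes)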; 200,000 compounds, 0.056% hits; AID 797, 2007;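 active means inhibition of 50% or more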;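 further: controls were vehicle for no effect and a reference inhibitor for full effect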
INS promoter inh: inhibitors of insulin promoter-driven GFP, primary screen, imaging, TRM-6 cells (human fetal islet line), eGFP reporter, cell count | 130,000 compounds, 0.9% hits | AID 1273, 2008 | reporter expression induced with tamoxifen | inhibition, % at 2 µM;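 active means inhibition above the mean plus 3 SD, with well images judged a real hit on visual review, cut at about 60% in these data, passing the limit was not always enough; inconclusive means inhibition over the cutoff but images rejected on review; inactive means inhibition not above the cutoff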
INS promoter inh cell count: recorded beside INS promoter inh, whose call it bears; normalized cell count, %; measured here: cell count, toxicity; reference of the scale not given here;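 cells exposed to compound for 48 h; stained nuclei by imaging scaled within each plate; lower means fewer cells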
HSV replic up primary fold: second read-out of HSV replic up, no call of its own (marks repeat the call); fold increase; compound at 10 µM; measured here: primary screen fold increase 10 uM; tested in PC3 cells;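 GFP signal in the first replicate; 1 = infected wells without compound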
* hit, by the source's call; i = inactive; ? = inconclusive; nt = no result given; & = joins results of further samples.

The line under a structure holds: HSV replic up	HSV replic up primary fold	RGS16-Gao	GALR2 agonist	PKD1 inh	INS promoter inh	INS promoter inh cell count
- Cc1ccccc1C(=O)Nc1ccccc1
 : i	0.99	99	-1.8	-21	-54	114
- Cc1c(NC(=O)Nc2ccc(Cl)c(Cl)c2)c(=O)n(-c2ccccc2)n1C
 : i	0.84	103	-2.1	-3	35	115
- CCOc1ccc(S(=O)(=O)NCCSc2ccccc2)cc1
 : i	0.67	85	-1.6	1	-3	67
- COC(=O)CS(=O)(=O)c1cc(Br)cc2c1N(C(C)=O)CC2
 : i	0.87	102	-0.5	15	-25	58
- COc1ccc(C)c2sc(=NC(=O)c3ccccc3)n(C)c12
 : nt	nt	79	-0.7	7	nt	nt
- COc1cc(C(=O)NCCC(C)C)ccc1OCc1ccc(Cl)cc1Cl
 : i	0.95	103	-0.2	3	7	113
- CCc1ccc(C2CC(c3ccc(Cl)cc3)=NNC2=O)cc1 (configuration not stated)
 : i	0.79	55	-1.4	1	nt	nt
- CCOc1cc2[nH]c(=O)n(CCC(=O)NCc3ccc(OC)cc3)c(=O)c2cc1OCC
 : i	0.99	104	-3.6	-1	-28	87
- CCN(CC)C(=O)C1CCCN(c2ccc([N+](=O)[O-])cc2)C1 (configuration not stated)
 : i	1	101	nt	-7	nt	nt
- COc1ccc(-n2cnc3c(cnn3CCC#N)c2=N)cc1
 : i	0.95	103	-4.3	-8	0	91
- COCCN(C(=O)Cn1nnc2ccccc21)C(C(=O)NC1CCCC1)c1cccc(OC)c1OC (configuration not stated)
 : i	1.1	102	-1.4	-3	nt	nt
- COC(=O)c1ccc(N2CCN(C)CC2)c(NC(=O)c2cccnc2)c1
 : i	0.89	95	nt	0	nt	nt
- CN1C=CC=C/C1=C(\C#N)c1nc2ccccc2[nH]1
 : i	1.2	101	-1.0	-2	nt	nt
- CCOCCCNC(=O)C(c1ccccc1)N(Cc1ccc2c(c1)OCO2)C(=O)c1ccccc1O (configuration not stated)
 : i	1.1	105	nt	-5	nt	nt
- CN(C(=O)Nc1ccc(Cl)cc1Cl)C1CCCC1
 : i	1.1	95	nt	-3	nt	nt
- COc1ccc(-n2nc(C(=O)Nc3ccc4c(c3)OCO4)c3c4ccccc4n(C)c3c2=O)cc1
 : i	0.89	nt	-1.9	-13	31	141
- FC(F)(F)c1nc2ccccc2nc1N/N=C\c1ccccc1
 : nt	nt	90	-2.0	6	4	85
- CCN(Cc1ccccc1)Cc1c(C)[nH]c2c(C)c(C)ccc2c1=O
 : nt	nt	98	-4.0	-2	-10	84
- COc1ccccc1N1CCN(C(=O)c2oc3ccc(Br)cc3c2C)CC1
 : i	0.52	103	0.0	5	nt	nt
- COc1ccc(C2NC(=O)NC(c3ccccc3)=C2c2nc3ccccc3s2)cc1 (configuration not stated)
 : i	0.94	103	0.1	3	-50	125

Four compounds from above, sorted by the number in GALR2 agonist, lowest first.
Structure	HSV replic up primary fold	RGS16-Gao	GALR2 agonist	PKD1 inh
FC(F)(F)c1nc2ccccc2nc1N/N=C\c1ccccc1	nt	90	-2.0	6
COCCN(C(=O)Cn1nnc2ccccc21)C(C(=O)NC1CCCC1)c1cccc(OC)c1OC (configuration not stated)	1.1	102	-1.4	-3
CN1C=CC=C/C1=C(\C#N)c1nc2ccccc2[nH]1	1.2	101	-1.0	-2
COc1ccccc1N1CCN(C(=O)c2oc3ccc(Br)cc3c2C)CC1	0.52	103	0.0	5

Further records follow.
The line under a structure holds: HSV replic up	HSV replic up primary fold	RGS16-Gao	GALR2 agonist	PKD1 inh	INS promoter inh	INS promoter inh cell count
- C/C(NC(=O)c1ccccc1)=C1/C(=O)CC2C1C2(C)C (configuration not stated)
 : i	1	102	-1.6	-3	-36	66
- C/C(=N\NC(=O)Cn1c(-c2ccccn2)nc2ccccc21)c1ccccc1
 : i	0.9	95	-0.7	-4	5	100
- CC12CCC(C(=O)Nc3ccc4c(c3)OCCO4)(OC1=O)C2(C)C (configuration not stated)
 : i	0.96	104	-1.2	-1	3	126
- O=C(N/N=C/c1cccc(Br)c1)c1ccc(Cn2cc(Br)cn2)o1
 : i	0.97	52	-1.4	12	7	96
- Cc1c(NC(=O)c2cc3c(=O)n4ccccc4nc3s2)c(=O)n(-c2ccccc2)n1C
 : i	1	98	nt	nt	nt	nt
- O=C1c2ccccc2NC(c2ccc(F)cc2)N1Cc1ccco1 (configuration not stated)
 : i	0.9	94	-1.3	-5	-9	74
- COc1cccc(NC(=O)CSc2nncn2N)c1
 : i	1.1	118	-1.5	0	-28	119
- CC1(C(=O)NCc2ccc(F)cc2)Oc2ccccc2NC1=O (configuration not stated)
 : i	1.1	103	nt	2	33	72
- COc1ccc([N+](=O)[O-])cc1NC(=O)CCN1CCN(c2ccccc2OC)CC1
 : i	0.97	109	-0.5	-7	nt	nt
- CC1CCN(C(=O)c2ccc(S(=O)(=O)Cc3cccc(F)c3)c([N+](=O)[O-])c2)CC1
 : i	0.67	98	0.8	-3	31	128
- CC(C)OC(=O)CC1C(=O)NCCN1C(=S)NC(=O)c1ccccc1Cl (configuration not stated)
 : i	0.9	100	nt	0	-9	65
- CCn1c(SC)nnc1-c1nn(-c2ccccc2)ccc1=O
 : i	1	99	nt	-1	43	43
- O=C(Nc1ccc(N2CCN(C(=O)c3ccc(Cl)cc3)CC2)cc1)c1ccc(Br)o1
 : i	0.83	99	-0.9	-4	7	144
- Cc1cc(NC(=O)CSc2nnc(-c3ccncc3)n2N)ccc1Br
 : i	0.99	104	-0.6	-2	-27	90
- CN1CCN(C(=O)c2cc3nc(-c4ccc(Cl)cc4)cc(C(F)(F)F)n3n2)CC1
 : i	0.97	94	-1.6	-3	-21	142
- N=c1c[n+](N2CCOCC2)[n-]o1
 : i	0.63&0.89	67	0.6	-14	41	142
- O=C(COC(=O)c1ccco1)Nc1ccc2c(c1)OCCO2
 : i	0.91	106	-0.8	8	nt	nt
- CC(C)Oc1ccc(/C=C(\NC(=O)/C=C/c2ccco2)C(=O)NCCc2nc3ccccc3[nH]2)cc1
 : i	1.1	96	-0.5	6	-29	102
- Cc1cc(NC(=O)CSc2nnc(Cc3ccccc3)n2C)no1
 : i	0.9	105	-1.6	3	-121	59
- O=C(NC(NC(=S)Nc1cccc(C(=O)O)c1)C(Cl)(Cl)Cl)OCc1ccccc1 (configuration not stated)
 : i	1	105	0.1	11	33	134
- CC(=O)Oc1ccc(C2(C)CC(C)(C)NC(=S)N2C)c(OC(C)=O)c1 (configuration not stated)
 : i	0.9	103	nt	-9	nt	nt
- Cc1cccn2cc(CCNS(=O)(=O)c3ccc4c(c3)OCCO4)nc12
 : i	1	106	-3.7	-10	nt	nt
- COc1cccc(Nc2nnc(SCc3nc4ccccc4s3)s2)c1
 : i	1.2	99	0.4	-3	47	65
- CCSc1nnc(-c2sc3nnc(-c4ccccc4)c(-c4ccccc4)c3c2N)o1
 : ?	nt	104	-3.1	9	-27	119
- CCOC(=O)c1[nH]c(C)c(C(=O)OCC(=O)N2CCCCC2C)c1C (configuration not stated)
 : i	0.99	101	-0.1	-7	17	87
- COC(=O)C(NC(C)=O)(Nc1cc(C)ccn1)C(F)(F)F (configuration not stated)
 : i	1.2	98	nt	nt	nt	nt
- CC(C)C(=O)NCCc1nc2ccccc2n1CCCOc1ccc(Cl)cc1
 : i	0.89	105	-0.9	-3	-53	98
- Cc1c(C(=O)O)c(-c2ccccc2)nn1-c1ccccc1
 : i	0.92	99	0.7	-2	-28	174
- COc1cc(/C=C2/SC(=S)N(c3c(C)n(C)n(-c4ccccc4)c3=O)C2=O)ccc1O
 : ?	nt	101	nt	-7	-53	36
- CCOc1ccc2c(c1)C(c1cccs1)=NNC(c1cccnc1)=N2
 : i	0.89	99	nt	-4	nt	nt
- CCCC(=O)Nc1ccccc1-c1nnn(CC(=O)Nc2ccc(OC)cc2)n1
 : i	0.99	101	0.0	3	-9	57
- CCCC(=O)N1CCN(c2ccc(NC(=O)C(C)(C)C)cc2Cl)CC1
 : i	0.93	104	nt	0	nt	nt
- COc1cccc(N2C(=O)C3CCCN3C2c2ccc(Cl)cc2)c1 (configuration not stated)
 : i	1.1	77	-0.5	0	nt	nt
- COc1ccc(-n2nnnc2-c2cn(C)nc2C(F)(F)F)cc1
 : i	0.91	103	-0.4	0	nt	nt
- Cn1c2c(c(O)c(-c3ccccc3)c1=O)C(=O)CC(C)(C)C2
 : i	0.86	112	-0.7	5	-59	113
- CCCCN(Cc1ccco1)C(=O)c1cc2c(=O)[nH]c3ccc(C)cc3c2s1
 : i	0.56	95	0.4	-4	nt	nt
- CC1=C(C(=O)N(C)C)C(c2cccc(Cl)c2)NC(=O)N1 (configuration not stated)
 : i	1.6	100	-2.0	-9	29	63
- CCc1cc(CC)c(/C=N/NC(N)=O)c(CC)c1/C=N/NC(N)=O
 : i	0.99	98	nt	-8	nt	nt
- CCOC(=O)c1c(N)n[nH]c1-c1ccc(OC)cc1
 : i	1	95	-1.3	-2	41	136
- COc1ccc(C2C(C(=O)NCCN(C)C)c3cc(OC)c(OC)cc3C(=O)N2C)cc1OC (configuration not stated)
 : i	0.88	100	-0.9	-3	-4	91
- COC(=O)C1=CN(C)C=C(C(=O)OC)C1c1ccc(Cl)cc1Cl
 : i	0.93	96	7.4*	-7	nt	nt
- COc1ccc(N2C(=O)CSC2c2cccc(OC)c2OC)cc1 (configuration not stated)
 : i	1.1	115	-0.1	2	nt	nt
- COc1cc(NC(=O)CSc2cc(C)c3cc(C)cc(C)c3n2)c(C(=O)O)cc1OC
 : i	0.89	97	nt	nt	nt	nt
- c1ccc(-n2c(Sc3cnccn3)nnc2-c2cccs2)cc1
 : i	0.96	102	-0.8	-13	nt	nt
- CCOC(=O)CSc1nnc(CSc2nc3ccccc3s2)n1C
 : i	0.99	100	-1.2	6	nt	nt
- Cc1ccc(/C=N\Nc2cn[nH]c(=O)c2Cl)cc1
 : i	0.88	106	-0.2	1	34	163
- CC(=O)NNC(=S)NCCc1ccccc1
 : i	0.88	110	nt	0	64	161
- CC(/C=C/c1ccco1)=N/NC(=O)C1COc2ccccc2O1 (configuration not stated)
 : i	1.1	97	nt	nt	nt	nt
- CCN1CCN(c2ccc([N+](=O)[O-])cc2S(=O)(=O)N2CCOCC2)CC1
 : i	0.62	96	nt	3	nt	nt
- O=C1CSc2ccc(C(=O)N3CCN(c4ccccn4)CC3)cc2N1
 : i	0.96	95	-1.7	-31	-64	169

Going on with the list.
The line under a structure holds: HSV replic up	HSV replic up primary fold	RGS16-Gao	GALR2 agonist	PKD1 inh	INS promoter inh	INS promoter inh cell count
- CCOC(=O)Nc1ccc(Cc2ccncc2)cc1
 : i	0.93	101	nt	8	nt	nt
- CCCN1C2CCCC1CC(NC(=S)Nc1cccc(C)c1C)C2 (configuration not stated)
 : i	1	100	nt	nt	nt	nt
- Cn1cc([N+](=O)[O-])c(C(=O)Nc2ccc(C3CCCCC3)cc2)n1
 : i	0.63	104	nt	-10	nt	nt
- O=C(NC1CCCC1)C1CCC(=O)N1CCc1ccccc1 (configuration not stated)
 : i	0.66	99	-1.0	-3	-139	106
- N#C/C(=C(/O)COC(=O)COc1cccc(Br)c1)c1nc2ccccc2[nH]1
 : i	1	96	nt	nt	nt	nt
- C#CCOCCOCCOCCNc1nc(N2CCN(C(=O)[C@H]([C@@H](C)CC)n3cc([C@@H](N)CC(C)C)nn3)CC2)nc(N2CCN(C(=O)[C@H](CCCCN)n3cc([C@@H](N)CO)nn3)CC2)n1
 : nt	nt	99	nt	-3	nt	nt
- O=C(NNC(=O)c1cccnc1SCc1cccc([N+](=O)[O-])c1)c1ccc(F)cc1
 : i	0.95	101	-0.8	-2	-43	111
- COc1ccc(NC(=O)CSc2nc3c(c(=O)n2-c2ccc(F)cc2)SCC3)cc1
 : i	0.85	99	-0.3	-3	nt	nt
- Cc1ccccc1N=Cc1cc2c(cc1[N+](=O)[O-])OCO2
 : i	1	91	0.7	-5	3	91
- Cc1cnc(-c2nnc(N(C)C(=O)c3cccnc3)s2)cn1
 : i	0.66	97	-1.5	-2	nt	nt
- Cc1cc(/C=N/NC(=O)C(=O)NCc2ccccn2)c(C)n1-c1cccc(Br)c1
 : i	1.1	99	nt	7	nt	nt
- Cc1c(Cl)c([N+](=O)[O-])nn1CCCC(=O)Nc1cccc(Cl)c1
 : i	1.1	106	-0.1	-3	-43	102

From PubChem
